# ClpP mod: qHTS Assay for Activators of ClpP; ATP-dependent Clp protease proteolytic subunit (Bacillus subtilis (strain 168)), P80244; AID 651965, 2013; purified B. subtilis ClpP, FRET peptide cleavage, 20 min; hit rate 1.9% among 340,000; Potency, µM (titrated, usually from 57.5 µM), for inactives: at the top dose activity change, negative = active; active = well fitted falling curve with a large enough effect; inconclusive = small, poorly fitted or top-dose-only effect; inactive = no such curve, though single readings can be large or run the other way; note: potency is the fitted concentration of half-maximal effect; the source files actives as falling curves though it sought activators and does not explain the sign; nearly all actives have a fitted effect of over 65% in size; many hits overshoot -100%
# Target sequence (P80244 whole entry, looked up): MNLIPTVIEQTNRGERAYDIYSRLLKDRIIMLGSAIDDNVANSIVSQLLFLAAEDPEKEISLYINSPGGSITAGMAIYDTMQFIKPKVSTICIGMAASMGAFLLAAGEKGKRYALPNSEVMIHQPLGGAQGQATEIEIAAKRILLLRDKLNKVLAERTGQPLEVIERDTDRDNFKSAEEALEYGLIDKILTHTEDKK
#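 Buffer: 100 mM Tris/HCl pH8, 100 mM KCl, 0.05% low protease BSA, 2.5% glycerol, 0.01% Tween-20. ClpP 10 microg/mL final; 20 min RT; delta FRET normalized to ADEP and DMSO controls.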
# CtBP-E1A blk: CtBP/E1A binding inhibition; AID 651724; AlphaScreen GST-E1A/His-CtBP binding, 1536-well; stronger effect = lower value; control for the full effect not named in the record; activity change, % (no concentration beside the values); hit rate 0.49% among 340,000; in the data active means activity change below about -65%; inconclusive means about -30% to -65%; inactive means above about -30%; note: % is set by controls: 0 for no effect and ±100 for the full control effect; compound concentration not given in the record
#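 Protein mix (5X: 125 nM each GST-E1A, His-CtBP) was incubated with pinned compound 2 h at 37 deg C in dark, in 50 mM Tris pH 8.0 buffer with 300 mM NaCl. Glutathione donor and nickel acceptor beads followed; AlphaScreen signal read after 1 h.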
# gsp antagonist: gsp mutant antagonism; hit rate 0.4% among 340,000; gsp-mutant cells, cAMP HTRF, 30 min; control for the full effect not named in the record; AID 624288; Potency, µM (doses to about 76.9 µM), for the others: at the top dose activity change, negative = inhibition, usual class: inhibitors; active = falling curve of any shape with a large fitted effect; inconclusive = falling curve, mostly with a smaller effect; inactive = flat or rising curve; cell line not stated here;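 note: intracellular cAMP measured with PDE inhibitor Ro 20-1724 present during compound exposure; potency is the fitted concentration of half-maximal effect; % is set by controls: 0 for no effect and ±100 for the full control effect; nearly all actives have a fitted effect of over 65% in size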
#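 Cells, 2000/well, grown 16–24 h in DMEM 10% FBS with 0.5 mg/ml G418, then compounds plus […] (300 uM addition stock), 30 min at 37C. cAMP read by HTRF (cAMP-d2 and anti-cAMP antibody-K in lysis buffer) after 30 min RT.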
# Menin MLL FP FL: menin-MLL binding inhibition, fluorescein peptide. AID 1766. FP activity change, % at 61.4 µM. 290,000 tested, under 10 active. Fluorescence polarization, fluorescein-MLL peptide displacement from menin; inconclusive = falling polarisation curve, or a change in total fluorescence; inactive = total fluorescence flat and polarisation flat or rising; no compound was filed as active; the % refers to the polarisation; negative = inhibition;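 note: % of control where 0% means no effect; inhibitors lower the polarisation; unlabelled MLL peptide was the positive control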
# TRPV1 potentiator: potentiators of human vanilloid receptor 1 (TRPV1). Q8NER1. TRPV1-expressing cells, Fluo-8 calcium influx, capsaicin EC20 potentiation; host cell line not named in the record; control for the full effect not named in the record. potentiation, % at 8.33 µM. hit rate 0.02% among 320,000; active means potentiation above 80%; inconclusive means 30% to 80%; inactive means below 30%; note: 0% is about no effect
# Target sequence (Q8NER1 whole entry, looked up): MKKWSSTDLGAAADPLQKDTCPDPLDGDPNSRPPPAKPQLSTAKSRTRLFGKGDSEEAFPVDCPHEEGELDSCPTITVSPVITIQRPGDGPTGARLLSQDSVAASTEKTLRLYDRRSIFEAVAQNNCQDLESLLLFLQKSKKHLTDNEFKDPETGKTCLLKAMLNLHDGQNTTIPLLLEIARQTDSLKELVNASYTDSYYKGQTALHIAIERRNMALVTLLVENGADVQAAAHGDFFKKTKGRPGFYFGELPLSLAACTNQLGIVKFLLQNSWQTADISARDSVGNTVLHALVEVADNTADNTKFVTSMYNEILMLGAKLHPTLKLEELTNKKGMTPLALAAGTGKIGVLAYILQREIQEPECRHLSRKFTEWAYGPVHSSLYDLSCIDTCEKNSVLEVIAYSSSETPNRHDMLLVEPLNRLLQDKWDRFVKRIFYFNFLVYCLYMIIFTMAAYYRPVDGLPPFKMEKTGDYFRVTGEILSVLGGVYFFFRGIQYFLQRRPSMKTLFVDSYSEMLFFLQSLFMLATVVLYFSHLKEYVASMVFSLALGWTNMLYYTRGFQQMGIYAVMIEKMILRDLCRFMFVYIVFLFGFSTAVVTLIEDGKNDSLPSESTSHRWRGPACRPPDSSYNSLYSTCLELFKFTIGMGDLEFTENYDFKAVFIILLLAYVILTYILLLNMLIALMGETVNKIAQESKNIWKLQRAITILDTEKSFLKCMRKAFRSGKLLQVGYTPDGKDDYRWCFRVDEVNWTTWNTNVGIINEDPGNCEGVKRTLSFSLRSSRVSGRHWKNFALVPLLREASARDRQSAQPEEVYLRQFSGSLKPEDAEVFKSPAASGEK
#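 TRPV1-expressing cells were cultured overnight at 35.5C and loaded with Fluo-8 calcium dye for 40 to 90 min at room temperature. After a 10 s baseline, compound was added and calcium influx was read kinetically for 3 min (ex 480/em 520 nm).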
# Sfp inh: blocks B. subtilis Sfp PPTase activity; Biochemical Sfp PPTase activity, qHTS; Potency, µM, without a hit: max response, negative = inhibition, usual class: inhibitors; hit rate 3.5% among 310,000; AID 1490; active = well fitted inhibition curve with a large enough effect; inconclusive = small, poorly fitted or top-dose-only effect, or another doubt; inactive = no such curve, though single readings can be large or run the other way;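 note: the enzyme is Sfp with the accession as filed and its product quenches rhodamine fluorescence; potency is the fitted concentration of half-maximal effect; 0% = enzyme reaction without inhibitor and -100% = no enzyme wells; top concentration of the series not given in the record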
#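 Sfp 15 nM + cpd, 15 min RT; start w/ rhodamine-CoA 5 uM, BHQ-2-YbbR 12.5 uM (final); 50 mM Hepes pH 7.6, 10 mM MgCl2, 0.01% NP-40, 0.01% BSA; read 525/598 nm at 0 and 30 min.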
# gsp agonist: activates gsp, the McCune-Albright syndrome mutation; gsp mutant cells, cAMP HTRF, 30 min; control for the full effect not named in the record; AID 624287; Potency, µM (series often up to 76.9 µM), for the others: at the highest dose activation (cAMP increase), usual class: activators; hit rate 0.13% among 340,000; active = well fitted activation curve with a large enough effect; inconclusive = small, poorly fitted or top-dose-only effect, or another doubt; inactive = no such curve, though single readings can be large or run the other way; cell line not stated here;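 note: phosphodiesterase inhibitor Ro 20-1724 added with compounds to block cAMP breakdown; potency is the fitted concentration of half-maximal effect; nearly all actives have a fitted effect of over 60% in size; about a fifth of the inactives were tested at one dose only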
#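 Cells stably selected in G418 were plated at 2000/well, grown 16-24 hr, then given compounds in DMSO with the PDE inhibitor […] (300 uM solution added) for 30 min at 37C; cAMP was read by HTRF.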
# * = called active by the depositor; ? = inconclusive; · = not tested or not shown; & = joins results of further samples; [ ] = remark or other dose.
1	CC(OC(=O)c1ccccc1NCCO)C(=O)NCC(=O)Nc1ccc(F)c(F)c1F (centres undefined)
2	COc1ccc(C(N)c2nccc3cc(OC)c(OC)cc23)cc1OC (centres undefined)
3	Cc1ccc(OCC(=O)NCc2cccs2)c([N+](=O)[O-])n1
4	CN1CCN(C(=O)c2ccc(-c3ccc(Br)cc3)o2)CC1
5	CC1CC(C)CN(CCCNC(=O)c2ccc3c(c2)ncn3C2CCCC2)C1 (centres undefined)
6	CN(C)S(=O)(=O)c1ccc(C(=O)NC(=O)CSc2nncs2)cc1
7	COc1cccc(-c2cc(N3C(=O)Nc4ccccc4N3O)n[nH]2)c1
8	COc1ccc(CNC(=O)C(c2ccncc2)N(C(=O)Cc2cccs2)c2ccc(C)cc2)cc1 (centres undefined)
Assay by compound	1	2	3	4	5	6	7	8
ClpP mod	16µM*	-25%	·	-5.2%	-1.0%	-0.3%	0.2%	0.4%
CtBP-E1A blk	15	?	-1	0	10	3	-2	9
gsp antagonist	4%	3%	-12%	9%	4%	-1%	-5%	-3%
Menin MLL FP FL	-1.1	0.0	-3.7	·	-0.7	·	5.4	-3.6
TRPV1 potentiator	4	27	3	·	?	·	0	7
Sfp inh	11%	-2%	21%	·	5%	·	-4%	5%
gsp agonist	-4%	-2%	13%[15.4 µM]	?	-2%	-21%	4%	?

9	O=C(NCC(=O)N1CCN(C(=O)c2ccco2)CC1)c1ccc(Cl)cc1
10	CCOC(=O)C1C(=O)C=C(/C=C/c2ccccc2)CC1c1ccc(Cl)cc1 (centres undefined)
11	CCN(CC)c1ccc(/C=N/NC(=O)Cc2nnc(NC(=O)Nc3ccccc3)s2)cc1
12	Cc1ccc(S(=O)(=O)c2nc(-c3ccco3)oc2NCC2CCCO2)cc1 (centres undefined)
13	CC(=O)Nc1ccc(NC(=O)C(F)(F)F)cc1
14	S=C1NC2(CCCCC2)Nc2ccccc21
15	CC(C)(C)c1ccc(OCCC(=O)OCC(=O)Nc2cccnc2Cl)cc1
16	O=C(NCc1cccs1)c1ccc2c(c1)OCCO2
Assay by compound	9	10	11	12	13	14	15	16
ClpP mod	1.4%	-6.2%	·	-1.4%	-0.8%	17%	1.7%	-0.6%
CtBP-E1A blk	-1	13	-17	4	-1	-9	10	-1
gsp antagonist	15%	-9%	5%	5%	13%	20%	9%	-1%
Menin MLL FP FL	·	1.4	7.8	2.6	0.4	-5.1	·	4.4
TRPV1 potentiator	2	9	-2	-3	3	3	0	7
Sfp inh	·	-5%	14%	?	16%	-16%	·	19%
gsp agonist	?	-12%	8%[15.4 µM]	-29%	-65%[inhibitor]	23%	5%	-40%[inhibitor]

17	CCOc1ccc(S(=O)(=O)N2CCN(C(=O)CN3C(=O)NC4(CCCC4)C3=O)CC2)cc1
18	C=CCNC(=O)C1CC2Cn3c(nc4ccccc43)C2N1C (centres undefined)
19	COCCNC(=O)CN(Cc1ccc2c(c1)OCO2)C(=O)CCC(=O)Nc1nccs1
20	Cc1cc(=O)[nH]c(SCC(=O)N2CCc3ccccc3C2)n1
21	Cc1cc(C(=O)OCC(=O)Nc2ccccc2C#N)c(C)o1
22	CCn1c(SCC(=O)Nc2cc(OC)c(OC)c(OC)c2)nnc1-c1cccs1
23	COc1ccc2c(Cl)c(C(=O)N/N=C3\CCCC(=O)C3)sc2c1
24	COc1ccc(-c2cc(-c3ccccc3)c(C#N)c(SCC(=O)O)n2)cc1
Assay by compound	17	18	19	20	21	22	23	24
ClpP mod	-0.6%	3.2%	1.1%	-0.3%	-1.5%	-4.8%	·	·
CtBP-E1A blk	2	1	-1	2	0	-14	?	-21
gsp antagonist	-2%	8%	0%	7%	-1%	-20%	-7%	?
Menin MLL FP FL	·	-1.6	2.8	-1.0	·	2.9	?	·
TRPV1 potentiator	-1	-8	-1	-5	-2	1	-3	·
Sfp inh	·	1%	16%	8%	·	-14%	1%	·
gsp agonist	?	·	-33%[inhibitor]	19%	-4%[15.4 µM]	13%	2%[15.4 µM]	-2%[15.4 µM]

25	COc1ccc(Cc2nnc(N/N=C/c3ccc(O)cc3)[nH]c2=O)cc1OC
26	Fc1ccccc1COc1ccc(Br)cc1CNCc1cccnc1
27	COC(=O)C1CCN(c2nc3ccccc3nc2C(C#N)C(=O)OCC(C)C)CC1 (centres undefined)
28	CCOc1ccc(CCN2CN(CC)CNC2=S)cc1OCC
29	CC(C)Cn1c([N+](=O)[O-])nc2c1c(=O)[nH]c(=O)n2C
30	Nc1ccc2cn[nH]c2c1
31	CC(Oc1ccc(Cl)cc1Cl)C(=O)OCC(=O)c1c(N)n(C)c(=O)n(C)c1=O (centres undefined)
32	CCOC(=O)Cn1c(=O)c(-c2ccccc2N)nc2ccccc21
Assay by compound	25	26	27	28	29	30	31	32
ClpP mod	1.5%	·	4.1%	·	0.6%	?	0.6%	-0.5%
CtBP-E1A blk	-91*	0	7	-13	-3	2	0	23
gsp antagonist	-3%	-7%	-6%	·	6%	-11%	-1%	2%
Menin MLL FP FL	2.4	-4.7	10	-4.1	4.2	0.6	·	-7.7
TRPV1 potentiator	8	?	-16	-9	-8	15	-22	-10
Sfp inh	15%	-16%	3%	11%	3%	-10%	·	9%
gsp agonist	-29%	-23%	?	-21%[15.4 µM]	3%[15.4 µM]	·	-1%	-1%

# CtBP-E1A blk: entries above that show a hit
item	structure	CtBP-E1A blk	gsp antagonist	Menin MLL FP FL	Sfp inh	gsp agonist
25	COc1ccc(Cc2nnc(N/N=C/c3ccc(O)cc3)[nH]c2=O)cc1OC	-91*	-3%	2.4	15%	-29%

# Next entries follow:
33	N#Cc1cnn(-c2nc(SCc3ccccc3)nc3sc4c(c23)CCCC4)c1N
34	O=C(COC(=O)c1ccc(Br)o1)NCc1ccc(Cl)cc1
35	CC(=O)N1CCN(CCS(=O)(=O)c2cc(Cl)ccc2Cl)CC1
36	Cc1cc(=O)[nH]c(NN=C2CCCCC2C)n1 (centres undefined)
37	O=c1c2ccccc2nnn1-c1ccc(Br)cc1
38	Cc1ccc2nc(Cl)c(CNCc3ccccc3)cc2c1
39	C=C1CC[C@@H]2[C@](C)(CO)[C@H](O)CC[C@@]2(C)[C@@H]1/C=C/C1=CCOC1=O
40	CC(Sc1nnc(CN2CCCC2)n1Cc1ccccc1)C(=O)Nc1ccc(F)c(F)c1F (centres undefined)
Assay by compound	33	34	35	36	37	38	39	40
ClpP mod	?	-21%	0.3%	0.4%	5.0%	-1.6%	1.1%	0.8%
CtBP-E1A blk	-1	-4	6	4	7	·	·	0
gsp antagonist	-5%	15%	11%	-3%	-5%	31%[activator]	3%	-16%
Menin MLL FP FL	0.5	·	·	·	2.5	-0.1	-3.4&2.8	·
TRPV1 potentiator	18	·	·	·	12	14	13	·
Sfp inh	10%	·	·	·	23%	12%	7%&-14%	·
gsp agonist	-5%	-3%[15.4 µM]	-1%[15.4 µM]	-3%[15.4 µM]	-13%	-2%	27%	-48%[inhibitor]

41	COc1cc(/C=N/OCC(=O)NC23CC4CC(CC(C4)C2)C3)ccc1OCc1ccccc1
42	O=C(CCS(=O)(=O)c1ccc(Br)s1)NCc1ccc2c(c1)OCO2
43	Cc1cc(C)n(C(=O)CCN2C(=O)c3ccccc3C2=O)n1
44	COc1c(O[C@@H]2O[C@H](CO)[C@@H](O)[C@H](O)[C@H]2O)cc2c(c1OC)-c1ccc(SC)c(=O)cc1C(NC(C)=O)CC2 (some centres undefined)
45	COCc1ccc(-c2c(-c3cc(OC)cc(OC)c3)oc(=O)c3cc(OC)c(OC)cc23)cc1
46	COc1ccnc(-n2cccc2C#N)c1C#N
47	Cc1ccc(NC(=O)c2oc3ccccc3c2C)nc1
48	O=C(Nc1ccccn1)c1ccc(S(=O)(=O)N2CCCCC2)cc1
Assay by compound	41	42	43	44	45	46	47	48
ClpP mod	-12%	-0.3%	1.2%	-1.0%	?	·	-14%	1.4%
CtBP-E1A blk	0	6	7	6	-5	1	17	0
gsp antagonist	-9%	0%	-4%	-1%	?	5%	-15%	-8%
Menin MLL FP FL	2.4	-0.3	-0.1	·	·	-0.3	2.1	·
TRPV1 potentiator	18	-1	-6	7	-9	-3	-7	-19
Sfp inh	?	9%	12%	·	·	17%	15%	·
gsp agonist	-2%	-16%	-7%	·	·	-4%[15.4 µM]	2%	-53%[inhibitor]

# The final 4 compounds of the part above lead into the next:
45	COCc1ccc(-c2c(-c3cc(OC)cc(OC)c3)oc(=O)c3cc(OC)c(OC)cc23)cc1
46	COc1ccnc(-n2cccc2C#N)c1C#N
47	Cc1ccc(NC(=O)c2oc3ccccc3c2C)nc1
48	O=C(Nc1ccccn1)c1ccc(S(=O)(=O)N2CCCCC2)cc1
49	O=C(Nc1c(-c2ccccc2)nc2ccccn12)c1ccccc1F
50	COC(=O)c1cc(Br)c(=O)n(CCN2CCOCC2)c1
51	COc1ccc(OC)c(/C=C2\SC(N3CCCCC3)=NC2=O)c1
52	Cc1ccc2nc(SCC(=O)NC(=O)NCc3ccco3)[nH]c2c1
Assay by compound	45	46	47	48	49	50	51	52
ClpP mod	?	·	-14%	1.4%	-0.1%&-1.3%	-1.0%	·	-2.7%
CtBP-E1A blk	-5	1	17	0	·	-1	-2	-1
gsp antagonist	?	5%	-15%	-8%	1%	3%	-9%	-1%
Menin MLL FP FL	·	-0.3	2.1	·	5.7	6.6	2.2	-6.6
TRPV1 potentiator	-9	-3	-7	-19	-26	3	-17	-14
Sfp inh	·	17%	15%	·	4%	17%	-9%	?
gsp agonist	·	-4%[15.4 µM]	2%	-53%[inhibitor]	-5%	20%	23%[15.4 µM]	2%

# High-throughput results (PubChem BioAssay)
